Assay outcomes (PubChem BioAssay)
RanGTP-Impb inh: inhibitors of RanGTP-importin-beta interaction, primary screen, biochemical, FRET, CFP-Ran, YFP-importin-beta, homogeneous. cell-free CFP-Ran/YFP-importin-beta FRET ratio. inhibition, % (no concentration beside the values). hit rate 1.1% among 300,000. AID 2216;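 active means most replicates above 15%; inconclusive means exactly half above 15%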;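 further: 0% = DMSO wells and 100% = Ran loaded with GDP instead of GTP; wells of about 40 µL received 100 nL stock; the first replicate is given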
HNF4A DNA FP: change in binding of human HNF4 alpha to DNA | HNF4a-FITC DNA binding, fluorescence polarization, 1 h | activity change, % at 10 µM | hit rate 0.3% among 360,000; in the data active means activity change above about 30%, passing the limit was not always enough;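 further: controls were the assay level and a saturating level of protein; the project sought stronger binding though the title names inhibitors; some compounds called inactive have numbers as strong as hits; positive values seem to mean higher polarization but the record does not say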
FGF22 binding: shifts melting point of recombinant human FGF22; AID 651658; calls only at 9.99 µM; Q9HCT0; hit rate 1.5% among 340,000; recombinant FGF22 thermal shift, SYPRO orange fluorescence; percent of sucrose octasulfate shift, DMSO zero;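 active means melting point raised past a set limit in the mean and every replicate; inconclusive means no clear call; three in four hits are not shown here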
Target sequence (Q9HCT0 whole entry, looked up): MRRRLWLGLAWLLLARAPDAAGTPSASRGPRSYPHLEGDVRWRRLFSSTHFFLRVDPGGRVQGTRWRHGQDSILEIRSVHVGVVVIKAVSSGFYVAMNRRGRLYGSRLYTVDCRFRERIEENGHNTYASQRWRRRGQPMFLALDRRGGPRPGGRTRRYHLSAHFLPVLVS
Vif TR-FRET: HIV-1 Vif–A3G interaction blockers – biochemical, TR-FRET, GST-Vif 1-94, biotin-A3G peptide, dose response retest, primary screen (AID 1117319); hit rate 0.57% among 260,000; inhibition, %; hits with a dose series show IC50 in µM; TR-FRET GST-Vif / biotin-A3G peptide binding; higher % means a stronger effect; test concentration not given here; strong numbers were not always called active;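 active means above the screen mean plus three standard deviations and confirmed in dose response; inconclusive means results disagree or hit not tested in dose response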;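 further: Vif residues 1-94 fused to GST binding biotinylated APOBEC3G peptide 110-148; 0% = full assay without inhibitor and 100% = GST in place of GST-Vif; retest series ran down from 100 µM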
MLL AF4-AF9 inh: inhibitors of human MLL-AF4/AF9 interaction. AlphaScreen, biotin-AF4 peptide binding to FLAG-AF9. hit rate 0.47% among 350,000. inhibition, % at 10 µM;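 active means every replicate reaching a set inhibition limit, whatever the replicate mean, cut at about 25% in these data; inconclusive means mean inhibition reaches that limit but some replicates miss it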;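 further: 0% = plate neutral control median and 100% = total signal loss; the record names both 10 and 1 µM as test concentration; the first replicate is given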
Target sequence (P42568 whole entry, looked up): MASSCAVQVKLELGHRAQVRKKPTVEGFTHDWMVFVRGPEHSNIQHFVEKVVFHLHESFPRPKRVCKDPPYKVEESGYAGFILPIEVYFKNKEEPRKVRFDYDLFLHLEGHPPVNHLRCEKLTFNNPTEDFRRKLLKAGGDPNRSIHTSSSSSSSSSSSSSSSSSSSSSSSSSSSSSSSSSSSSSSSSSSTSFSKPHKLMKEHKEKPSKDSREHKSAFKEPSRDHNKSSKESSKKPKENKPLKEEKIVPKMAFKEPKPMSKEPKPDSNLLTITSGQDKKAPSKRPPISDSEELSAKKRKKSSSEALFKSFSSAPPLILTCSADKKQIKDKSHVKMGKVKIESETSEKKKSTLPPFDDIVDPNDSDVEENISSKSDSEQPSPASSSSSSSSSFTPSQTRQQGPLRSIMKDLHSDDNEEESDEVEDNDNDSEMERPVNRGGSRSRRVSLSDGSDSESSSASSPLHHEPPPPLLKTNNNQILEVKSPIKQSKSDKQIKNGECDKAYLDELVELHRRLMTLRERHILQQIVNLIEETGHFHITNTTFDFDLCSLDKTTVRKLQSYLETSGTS
UCH37 DUB inh: human UCH37 deubiquitinating enzyme inhibition; hit rate 0.33% among 330,000; AID 588478; purified proteasome/UCH37, Ub-AMC cleavage fluorescence; Q9Y5K5; inhibition, % (no concentration beside the values);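 active means mean of two replicates above 20%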;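 further: 0% = compound-free wells with enzyme and 100% = wells lacking proteasome; stock transfer was 100 nL into about 20 µL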
Target sequence (Q9Y5K5 whole entry, looked up): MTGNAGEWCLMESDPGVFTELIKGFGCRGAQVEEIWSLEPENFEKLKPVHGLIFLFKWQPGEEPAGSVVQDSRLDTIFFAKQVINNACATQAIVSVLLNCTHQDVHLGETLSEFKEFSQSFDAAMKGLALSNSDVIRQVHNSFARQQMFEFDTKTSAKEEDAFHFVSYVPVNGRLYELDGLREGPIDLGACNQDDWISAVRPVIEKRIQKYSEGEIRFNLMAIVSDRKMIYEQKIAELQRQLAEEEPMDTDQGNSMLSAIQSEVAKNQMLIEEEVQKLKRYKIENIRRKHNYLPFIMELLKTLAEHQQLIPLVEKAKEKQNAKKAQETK
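Material: Human UCH37 enzyme supplied as purified proteasome complex | Schedule: 30 min preincubation with enzyme, 25 min cleavage at room temperature | Detection: AMC fluorescence 355/460 nm | Measure: % inhibition of Ub-AMC cleavage fluorescence | Controls: Wells without proteasome as full block, compound-free enzyme plus substrate as uninhibited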
E coli growth: inhibitors of Escherichia coli growth. OD600, 23 h; active compounds read low. OD600 absorbance (concentration not given with the values). hit rate 0.21% among 330,000;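 active means OD600 absorbance below the run mean of sample wells minus 3.6 SD, in any replicate, cut at about 0.56 in these data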;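 further: stock transfer was 300 nL into about 60 µL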
* marks the source's active call; other numbers are inactive results; i = inactive; ? = inconclusive; · = no result given; + = active, no number; & = joins results of further samples. A portion of the library; rates above refer to the full screens.

SMILES	RanGTP-Impb inh	HNF4A DNA FP	FGF22 binding	Vif TR-FRET	MLL AF4-AF9 inh	UCH37 DUB inh	E coli growth
O=S(=O)(c1cccc(-c2nnc(-c3cccnc3)o2)c1)N1CCCCC1	6.8	-4.1	·	-1%	·	0.7	0.71
CCN1CCN(C(=O)c2ccccc2N(Cc2ccccc2)S(C)(=O)=O)CC1	-0.2	0.6	·	10%	·	2.9	0.71
CSc1ccc(CCNC(=O)c2cc(-c3ccccc3)c(N3CCOCC3)s2)cc1	-3.5	-2.0	i	·	9.9	-1.5	0.64
CCOc1ccc(C(O)c2nccn2C)cc1 (stereo not drawn)	-0.9	-2.7	·	6%	·	2.3	0.64
COc1ccc(C2OC(=O)CC2C(=O)NC2CCCCCC2)cc1OC (stereo not drawn)	5.5	-2.3	i	6%	0.0	0.8	0.64
O=C(C[C@H]1C[C@@H]2c3cc(NS(=O)(=O)c4ccccc4)ccc3O[C@@H]2[C@H](CO)O1)N1CCOCC1	·	3.0	i	-2%	-2.2&-0.4	·	·
CC(=O)Nc1ccc(C=NNc2ccc([N+](=O)[O-])cc2S(=O)(=O)Nc2ccccc2C(=O)O)cc1	·	14	i	·	2.2	9.1	0.65
CC(Oc1ccccc1)C(=O)OCC(=O)NC(=O)NC1CCCCC1 (stereo not drawn)	·	2.3	i	-4%	-0.4	0.5	0.7
O=C(CSc1nc2c(c(=O)n1-c1ccc(Br)cc1)SCC2)NCC1CCCO1 (stereo not drawn)	1.2	-1.8	·	?	·	11	0.71
CC(C)(C)NC(=O)c1ccc2c(c1)N(CC(=O)N1CCCCC1)C(=O)C(C)(C)O2	2.3	0.2	i	·	-1.2	1.3	0.64
Cc1ccc(NC(=O)/C=C/c2cccc(C(F)(F)F)c2)cc1	1.0	5.7	+	33%	8.4	-0.1	0.66
CCCCSCc1cc(C(=O)O)oc1C(C)(C)C	-4.2	-2.6	i	-6%	-2.6	4.7	0.69
OCc1nc2ccccc2n1/N=C/c1cccs1	1.4	2.9	i	6%	4.2	·	·
CC(Oc1ccc(Cl)cc1)c1ccn[nH]1 (stereo not drawn)	-3.0	-0.4	i	0%	-1.2	3.2	0.65
O=[N+]([O-])c1ccc(Oc2ccc(F)cc2)c2ccncc12	-5.1	0.6	·	2%	·	5.0	0.75

Record cards, as listed above. Values in the order: RanGTP-Impb inh, HNF4A DNA FP, FGF22 binding, Vif TR-FRET, MLL AF4-AF9 inh, UCH37 DUB inh, E coli growth
CSc1ccc(CCNC(=O)c2cc(-c3ccccc3)c(N3CCOCC3)s2)cc1 as listed: -3.5, -2.0, i, ·, 9.9, -1.5, 0.64
CC(Oc1ccccc1)C(=O)OCC(=O)NC(=O)NC1CCCCC1 (stereo not drawn) as listed: ·, 2.3, i, -4%, -0.4, 0.5, 0.7
Cc1ccc(NC(=O)/C=C/c2cccc(C(F)(F)F)c2)cc1 as listed: 1.0, 5.7, +, 33%, 8.4, -0.1, 0.66
CCOc1ccc(C(O)c2nccn2C)cc1 (stereo not drawn) as listed: -0.9, -2.7, ·, 6%, ·, 2.3, 0.64
O=[N+]([O-])c1ccc(Oc2ccc(F)cc2)c2ccncc12 as listed: -5.1, 0.6, ·, 2%, ·, 5.0, 0.75

(further entries)
SMILES	RanGTP-Impb inh	HNF4A DNA FP	FGF22 binding	Vif TR-FRET	MLL AF4-AF9 inh	UCH37 DUB inh	E coli growth
CN(Cc1ccccc1)C(=O)c1nc2ccccn2c1CNCCCOc1cccnc1	-3.9	-44	i	?	2.7	2.8	0.69
O=C(NNS(=O)(=O)c1ccc(F)cc1)c1cnn(-c2ccccc2)c1C(F)(F)F	-0.4	1.3	i	24%	2.2	4.9	0.68
O=C(NNS(=O)(=O)c1ccc2ccccc2c1)NC1CCCCC1	0.1	-3.0	·	1%	·	-0.5	0.71
CCCn1[nH]cc(SC)c(=O)c1=O	-1.8	0.4	·	68%	·	0.7	0.72
CCOC(=O)CC1(c2ccccc2)CCOC(C)(C)C1 (stereo not drawn)	-3.3	-1.5	·	-2%	·	0.0	0.67
COc1ccc(C2C3=C(CCCC3=O)Nc3ccc4ncccc4c32)cc1OC (stereo not drawn)	2.4	4.4	i	10%	0.3	-10	0.7
Cc1ccc(S(=O)(=O)Nc2cccc3c2O[C@H](CN(C)C(=O)Nc2ccc(C(F)(F)F)cc2)[C@@H](C)CN([C@H](C)CO)C3=O)cc1	·	-1.8	i	1%	-0.5	1.8	0.71
O=C1NC[C@@H](CCCCN2C[C@H](Cc3ccc(O)cc3)N(CCc3ccc(O)cc3)C(=O)C2=O)N(CC2CCCCC2)C1=O	·	-0.6	i	·	2.5	·	·
COc1ccccc1NS(=O)(=O)c1ccc(C(=O)NCC(c2ccccc2OC)N(C)C)cc1 (stereo not drawn)	-15	0.7	i	·	0.7	3.4	0.74
O=C(CC1Sc2ccccc2NC1=O)OCc1cc(=O)oc2cc(O)ccc12 (stereo not drawn)	?	-5.7	i	?	-17	-221	0.68
CC(=O)c1cnc2nc(C(F)(F)F)nn2c1C	-10	2.0	·	16%	·	-0.3	0.73
CCc1nnc(NC(=O)Cn2nc(-c3ccc(OC)c(OC)c3)ccc2=O)s1	1.8	4.0	·	29%	·	6.0	0.69
CCOC(=O)c1ccccc1NC(=O)c1cc2ccccc2o1	-1.5	-0.9	i	·	-2.0	-18	0.72
O=C1NC[C@@H](CCCCN2CCN(Cc3ccccc3)C(=O)C2=O)N(CC2CCCCC2)C1=O	·	0.8	i	·	-8.7	·	·
Cc1ccccc1OCC(=O)N/N=C1\CC(=O)CC(C)(C)C1	-0.3	3.6	i	·	-2.5	·	·
COc1ccc(CN(Cc2ccccn2)S(=O)(=O)c2ccc(-n3cnnn3)cc2)cc1	-2.5	5.9	·	-2%	·	1.6	0.73
CCc1ccc(/C([O-])=C(/C(=S)NCCN2CCOCC2)[n+]2ccccc2)cc1	4.6	-0.3	i	1%	-5.1	2.6	0.63
O=[N+]([O-])c1cccc(-c2nnc(C3CC3)o2)c1	0.0	-5.6	i	·	-8.6	-0.1	0.66
Cc1cc2c(ncn2C(C)C)c(NS(=O)(=O)c2ccc(F)cc2)c1C	?	3.7	i	-4%	-1.2	5.3	0.72
COc1ccccc1C#Cc1ccc2c(=O)c3ccccc3n(C)c2c1	40*	3.2	i	·	·	-26	0.72
CCOc1ccc(N2CC(C(=O)Nc3ccc(S(=O)(=O)Nc4ncccn4)cc3)CC2=O)cc1 (stereo not drawn)	·	5.4	·	13%	·	2.0	0.7
Cc1ccc(CCNC(=O)C2CCN(C(=O)c3sccc3-n3cccc3)CC2)cc1	0.3	0.3	·	-4%	·	-0.6	0.71
O=C(NN1C(=O)c2ccccc2C1=O)C1C2CCCCC21 (stereo not drawn)	-2.1	-0.3	i	2%	3.4	1.6	0.7
COc1cccc(-c2cc3nc(NCCN4CCCC4)n(C)c(=O)c3s2)c1	·	0.6	i	·	2.6	·	·
CCOC(=O)CN1C(=O)N[C@@H](CCc2ccccc2)C(C(C)=O)=C1C	-1.1	·	i	·	6.4	4.4	0.79
CC(NO)/C(=N\O)c1cccs1 (stereo not drawn)	-2.1	2.4	i	-4%	-4.7	·	·
COc1ccc(S(=O)(=O)NC2CCN(Cc3ccccc3)CC2)cc1NC(C)=O	·	4.6	i	6%	4.5	1.8	0.68
Cc1cc(-c2ccccc2)nc(N(C)N)c1S(C)(=O)=O	0.4	5.8	i	-6%	0.8	-1.8	0.69
CC(c1c(O)c2ccccc2[nH]c1=O)C1(C)CCC(O)C(C)(C)O1 (stereo not drawn)	-0.9	-0.8	i	21%	-0.6	0.8	0.68
O=C(c1cccn(Cc2ccc(Cl)c(Cl)c2)c1=O)N1CCOCC1	6.8	70*	·	14%	·	-0.7	0.72
O=C(CCc1ccc(O)cc1)NNC(=S)NCCc1ccccc1	3.7	-1.7	i	17%	-1.6	1.9	0.68
Cc1ccc2nc(COC(=O)c3cccnc3Cl)cc(=O)n2c1	·	-5.5	i	-4%	-53	·	·
CCN(c1ccccc1)S(=O)(=O)c1ccc(Cl)c(NC(=O)CN(C)C2CCN(C)CC2)c1	3.1	2.4	i	·	10	·	·
CCn1nc(C)c(/C=N\NC(=O)c2cccc(OC)c2)c1C	2.5	-0.2	i	·	3.0	·	·
Cc1[nH]c2ccccc2c1C(=O)C(=O)N1CCN(c2ccccc2F)CC1	1.9	-2.8	i	·	0.6	4.2	0.7
COc1ccccc1N1C(=O)C2CCC(c3ccccc3)CC2C1=O (stereo not drawn)	2.1	1.5	i	-4%	2.7	2.0	0.7
COc1ccc(CNC(=O)CCC(=O)N2CCN(S(=O)(=O)c3ccc(Cl)cc3)CC2)cc1	1.5	5.0	i	-15%	0.1	0.7	0.71
Cc1nc2cc(N3CCN(C)CC3)c(NC(=O)Cc3ccccc3)cc2c(=O)n1Cc1ccccc1	6.7	2.7	·	-3%	·	-1.8	0.72
O=C(NNC(=S)NC(=O)c1cccc([N+](=O)[O-])c1)c1ccc(Br)cc1	-0.8	-5.1	i	2%	-3.4	5.5	0.64
C[C@@]12C(=O)N(Cc3ccccc3)CC(=O)N1[C@H]1c3cc(Cl)ccc3OC[C@@H]1[C@@H]2c1ccccc1	·	1.6	i	·	2.4	0.5	·
Cc1cccc(S(=O)(=O)NC(=O)C2(C)CCN2C(=O)Cc2ccc(-c3ccccc3)cc2)c1 (stereo not drawn)	·	2.2	i	·	2.1	·	·
O=c1cc(Br)c(O)c(Br)cc1Br	·	-11	i	24%	-9.1	8.4	0.66
O=C(Nc1ccccc1)c1cccnc1N1CCCC1	1.5	-0.1	·	-4%	·	3.3	0.66
CCCc1[nH]nc2c1C(c1ccccc1OC)C(C#N)=C(N)O2 (stereo not drawn)	-0.5	0.3	·	-4%	·	1.8	0.61
Cc1ccc(N2C(=O)SC(Cc3ccccc3)C2=O)cc1 (stereo not drawn)	4.5	-1.8	i	-2%	-6.5	-0.3	0.69
CCn1nnc(NC(=O)c2ccc(-c3ccccc3[N+](=O)[O-])o2)n1	0.1	5.5	i	11%	0.0	4.9	0.62
O=C(COC(=O)Cn1c(C(F)(F)F)nc2ccccc21)Nc1ccc2c(c1)OCCO2	5.2	0.4	·	2%	·	3.0	0.68
Cc1ccc(C2=[N+]([O-])C3(CCCCC/C3=N\NC(N)=O)N(O)C2(C)C)o1 (stereo not drawn)	0.2	-1.5	·	27%	·	·	·
Cc1cccc(NC(=O)CS(=O)(=O)Cc2ccccc2)n1	3.4	-1.2	·	-6%	·	6.6	0.71
C=CCn1c(SCC#N)nc2c(c1=O)C(C)(C)Cc1ccccc1-2	6.3	-1.3	·	1%	·	3.6	0.71
Cc1ccc(Nc2c([N+](=O)[O-])cc(C(=O)N3CC(=O)Nc4ccccc43)cc2[N+](=O)[O-])c(C)c1	-5.9	0.5	·	8%	·	0.6	0.7
CCC(CC)COC(=O)C1=C(C)NC(=O)NC1c1ccc2c(c1)OCO2 (stereo not drawn)	0.6	0.8	i	31%	-18	3.2	0.73
CCn1c(SCC(=O)NCc2ccc3c(c2)OCO3)nnc1-c1ccncc1	1.4	1.0	i	·	-1.0	-0.7	0.67
Cc1cc(O)cc2c1C1CCC3(C)C(=O)CCC3C1C=C2 (stereo not drawn)	·	-2.7	i	-2%	-2.5	2.5	0.7
N#CCc1nc2ccccc2c(=O)[nH]1	?	0.0	i	10%	5.8	4.7	0.65
COc1ccccc1CNC(=O)Cn1nc(C)c([N+](=O)[O-])c1C	4.1	0.6	i	·	0.8	-1.7	0.68
COc1cc(-c2nc(-c3ccc(Br)o3)no2)cc(OC)c1OC	-2.6	5.7	i	?	6.5	-1.5	0.75
